GALR2 agonist – activates the human galanin receptor 2 | activation, %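 (tested at 5 µM)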 | actives 0.48% (n = 140,000) | GALR2-expressing cells, agonist activation read-out | AID 803 | O43603;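 active means above mean plus 3 SD of all compounds, about 5% in these data, not always enough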;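 further: 0% = vehicle buffer wells and 100% = reference agonist at full effect; tested in CHO reporter cells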
Target sequence (O43603 whole entry, looked up): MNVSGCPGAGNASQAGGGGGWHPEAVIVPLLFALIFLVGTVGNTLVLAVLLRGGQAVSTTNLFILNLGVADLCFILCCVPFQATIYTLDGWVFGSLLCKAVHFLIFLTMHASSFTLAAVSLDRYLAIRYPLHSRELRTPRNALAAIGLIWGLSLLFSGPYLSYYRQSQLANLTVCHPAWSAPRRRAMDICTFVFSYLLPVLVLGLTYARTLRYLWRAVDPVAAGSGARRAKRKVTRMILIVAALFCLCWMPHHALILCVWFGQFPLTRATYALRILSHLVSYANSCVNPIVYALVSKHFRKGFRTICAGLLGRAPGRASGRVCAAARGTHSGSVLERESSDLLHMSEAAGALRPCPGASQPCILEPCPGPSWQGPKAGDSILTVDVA
PKD1 kinase inh – PKD1 (human) kinase inhibition. PKD1 kinase fluorescence polarization assay. Q15139. actives 0.056% (n = 200,000). AID 797. inhibition, %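 (about 10 µM by stock and volumes)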;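 active means inhibition of 50% or more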;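 further: controls were vehicle for no effect and a reference inhibitor for full effect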
HSV replic up – HSV replication enhancement; actives 0.005% (n = 220,000); maximum fold increase; HSV replication augmentation in cells, fold increase;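 active means peak rise of 1.5-fold or more in the series; inconclusive means self-fluorescent or not available for retest; tested in PC3 cells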;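 further: first round at 10 µM; read as green reporter fluorescence; hits show the peak of a series up to 25 µM; 1 = signal of infected wells without compound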
RGS16-Gao – modulates binding between human RGS16 and Galphao | binding response (% of control), % at 10 µM | actives 0.38% (n = 220,000) | O15492+P09471 | bead-based flow cytometry RGS16-Galphao binding, fluorescence; actives lie on both sides;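 active means below 25% or above 175%, edge rows of some plates excepted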;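 further: Galphao activated by GDP with aluminum fluoride before binding; 100% = wells without compound and 0% = beads without RGS; some results beyond the cut were filed as inactive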
Target sequence (O15492 whole entry, looked up): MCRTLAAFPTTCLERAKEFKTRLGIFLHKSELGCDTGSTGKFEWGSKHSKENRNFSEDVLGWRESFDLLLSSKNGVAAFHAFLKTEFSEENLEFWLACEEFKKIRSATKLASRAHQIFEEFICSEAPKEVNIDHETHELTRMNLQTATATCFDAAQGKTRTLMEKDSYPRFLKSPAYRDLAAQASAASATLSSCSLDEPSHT
Target sequence (P09471 whole entry, looked up): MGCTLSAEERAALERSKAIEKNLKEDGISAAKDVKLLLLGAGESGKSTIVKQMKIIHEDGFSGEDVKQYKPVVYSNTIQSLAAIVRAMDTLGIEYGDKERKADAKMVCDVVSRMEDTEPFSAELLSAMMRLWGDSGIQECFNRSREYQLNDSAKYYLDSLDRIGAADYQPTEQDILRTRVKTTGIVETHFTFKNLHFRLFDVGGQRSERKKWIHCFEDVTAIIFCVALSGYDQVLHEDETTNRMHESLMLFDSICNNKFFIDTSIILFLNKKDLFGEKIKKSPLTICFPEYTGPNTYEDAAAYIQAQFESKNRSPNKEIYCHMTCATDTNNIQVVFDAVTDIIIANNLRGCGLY
INS promoter inh – TRM-6 insulin promoter activity inhibition. TRM-6 cells (human fetal islet line), insulin promoter-eGFP reporter, imaging; reporter expression induced with tamoxifen. inhibition, % at 2 µM. actives 0.9% (n = 130,000);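 active means inhibition above the mean plus 3 SD, with well images judged a real hit on visual review, cut at about 60% in these data, passing the limit was not always enough; inconclusive means inhibition over the cutoff but images rejected on review; inactive means inhibition not above the cutoff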
INS promoter inh cell count – recorded beside INS promoter inh, whose call it bears; normalized cell count, %; measured here: cell count, toxicity; reference of the scale not given here;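 cells exposed to compound for 48 h; stained nuclei by imaging scaled within each plate; lower means fewer cells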
HSV replic up primary fold – recorded beside HSV replic up, whose call it bears; fold increase; compound at 10 µM; measured here: primary screen fold increase 10 uM; tested in PC3 cells;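 GFP signal in the first replicate; 1 = infected wells without compound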
The depositor's hits bear a star; i = inactive; ? = inconclusive; / = not tested or not shown.

SMILES | GALR2 agonist | PKD1 kinase inh | HSV replic up | HSV replic up primary fold | RGS16-Gao | INS promoter inh | INS promoter inh cell count
Cc1cc(C)cc(NC(=O)C2(c3cccs3)CCOCC2)c1 | -0.9 | 2 | i | 0.93 | 104 | -8 | 78
O=C(CNC(=O)c1ccco1)OCc1ccc(Cl)cc1 | 0.2 | -5 | i | 0.93 | 108 | 8 | 108
CCC(C)(C)C(=O)Nc1cccc(Cl)c1C | / | -1 | i | 1.1 | 107 | -30 | 90
CCOC(=O)Cn1nc(C)c(NC(=O)COc2ccc(F)cc2F)c1C | / | -4 | i | 1 | 99 | -47 | 129
O=C(N/C(=C/c1cn(-c2ccccc2)nc1-c1ccccc1)C(=O)N1CCOCC1)c1ccccc1 | 0.4 | -6 | i | 1 | 107 | / | /
CCN(c1ccc(NC(=O)CCNC(=O)c2ccco2)cc1)C(C)C | -1.0 | -26 | i | 1.1 | 104 | -22 | 142
CCn1c2ccccc2c2nc3cc(C(=O)O)ccc3nc21 | / | 1 | i | 0.69 | 97 | / | /
Cc1nc2sc(C(c3cccs3)N3CCC(C(N)=O)CC3)c(O)n2n1 (stereo unspecified) | 1.1 | 1 | i | 0.83 | 102 | / | /
O=c1[nH]c(=O)n(Cc2ccco2)c2c1C(C(F)(F)F)(C(F)(F)F)N=C(CCC1CCCCC1)N2 | 2.2 | 1 | i | 0.86 | 104 | 36 | 94
CCN1C(=O)CC(Sc2ccccc2N)C1=O (stereo unspecified) | -1.9 | -12 | i | 1 | 103 | 13 | 84
COc1ccc(-n2c(SCC(=O)N3CCCC3)nc3ccccc3c2=O)cc1 | / | 0 | i | 0.73 | 127 | -20 | 135
CCc1cc2c(=O)c(-c3nc4ccccc4[nH]3)coc2c(CN2CCCCC2C)c1O (stereo unspecified) | / | / | i | 1 | 103 | / | /
COc1ccccc1CNS(=O)(=O)c1ccc(C)cc1 | -1.0 | 2 | i | 1 | 98 | -58 | 104
COc1ccc(C(=O)NC(=S)NCc2ccc(-c3nc4ccccc4o3)cc2)cc1OC | -0.5 | -2 | i | 0.69 | 99 | -17 | 90
Cc1cc(CNC(=O)C(C)n2cc([N+](=O)[O-])cn2)c2ccccc2n1 (stereo unspecified) | / | 9 | i | 1.1 | 97 | / | /
CN1CCN(c2ccc(S(=O)(=O)N3CCCCC3)cc2NC(=O)c2ccc(C#N)cc2)CC1 | 0.5 | 4 | i | 0.84 | 101 | / | /
OC(COc1cccc2ccccc12)CN1CCN(c2ccccc2Cl)CC1 (stereo unspecified) | / | / | i | 1 | 104 | / | /
CCc1c(C)sc(NC(=O)OC)c1C(N)=O | -4.8 | 5 | i | 0.89 | 91 | 12 | 117
CC(C)(C)Cc1nnc(NS(C)(=O)=O)s1 | -0.1 | -4 | i | 1 | / | 44 | 128
COc1ccc2c(c1OC)C(=O)N(c1ccc(O)cc1)C2=O | / | -6 | i | 0.93 | 99 | / | /
COc1ccccc1NC(=O)c1ccc(NC(=O)CSc2ncccn2)cc1 | / | -1 | i | 0.95 | 99 | / | /
CCOc1ccccc1NC(=O)COC(=O)CNS(=O)(=O)c1ccc(C)cc1 | -0.4 | -8 | i | 1 | 108 | 44 | 58
O=Cc1ccc(OCc2cccc(C(F)(F)F)c2)cc1O | / | -2 | i | 1 | 96 | / | /
Cc1ccc(SCCNC(=O)c2ccc(CN3CCOCC3)cc2)cc1 | / | -7 | i | 1.1 | 103 | 55 | 97
CN1CCN(CC(=O)N2c3ccccc3C(C)(c3ccc(Cl)cc3)CC2(C)C)CC1 (stereo unspecified) | -0.6 | -4 | i | 0.54 | 111 | -4 | 108
CCOc1ccc(C(=O)NC(=S)NCc2cccnc2)cc1[N+](=O)[O-] | -0.2 | 10 | / | / | 88 | -75 | 98
CN(C)CC(C)(C)CNC(=S)Nc1cc(S(=O)(=O)N2CCOCC2)ccc1Cl | / | 3 | i | 0.87 | 93 | / | /
COc1ccc(/C=C(\C#N)C(=O)NCC(c2ccc(F)cc2)N2CCOCC2)cc1 (stereo unspecified) | / | / | i | 1 | 102 | / | /
Cc1ccc(-c2cc(C(=O)N3CCCc4ccccc43)c3ccccc3n2)cc1 | -3.1 | -10 | i | 0.96 | 101 | 7 | 111
COCCOc1cc(-n2ccnc2SC)c(Cl)cc1Cl | -0.9 | -12 | i | 0.96 | 102 | -4 | 107

Other compounds follow.
SMILES | GALR2 agonist | PKD1 kinase inh | HSV replic up | HSV replic up primary fold | RGS16-Gao | INS promoter inh | INS promoter inh cell count
Cc1ccnc(NC(=O)c2ccc3c(c2)S(=O)(=O)c2ccccc2C3=O)c1 | / | / | i | 0.96 | 102 | / | /
CC(NC(=O)CC1Nc2ccccc2NC1=O)c1ccccc1 (stereo unspecified) | -1.2 | 4 | i | 0.97 | 96 | / | /
Cn1cc(/C=N\O)nc2c(=O)n(-c3ccccc3)c(=O)nc1-2 | / | -2 | ? | / | 107 | / | /
C[C@@H]1CCC[C@H](C)N1NC(=O)c1ccc(Cl)c(S(N)(=O)=O)c1 | -0.3 | -17 | i | 0.83 | 95 | -27 | 50
CN(Cc1ccccc1)S(=O)(=O)c1ccc(NC(=S)NC(=O)C2CCCC2)cc1 | -3.0 | 2 | i | 0.55 | 102 | 29 | 92
COc1ccccc1/C=N/NC(=O)CCn1cnc2ccccc21 | -0.6 | -4 | i | 1.3 | 103 | -43 | 132
CCOC(=O)CSc1nnc(NC(=O)c2cccc(S(=O)(=O)N3CCCCCC3)c2)s1 | -1.8 | -9 | i | 0.95 | 104 | -16 | 123
COC(=O)c1cccc(CN2C(=O)SC(Nc3ccccc3)C2=O)c1 (stereo unspecified) | / | / | i | 0.94 | 98 | / | /
O=[N+]([O-])c1cc(S(=O)(=O)N2CCCCC2)ccc1NCCCN1CCOCC1 | / | 3 | i | 0.98 | 101 | -33 | 114
COc1ccc(CCNC(=O)c2ccc(CNc3c(N4CCOCC4)c(=O)c3=O)cc2)cc1OC | -2.3 | 2 | i | 0.9 | 96 | -25 | 146
O=C(NCc1ccc2c(c1)OCO2)c1ccc(Cl)c(S(=O)(=O)N2CCOCC2)c1 | -1.9 | -8 | i | 0.98 | 105 | -27 | 110
Cc1cccc2cc(CNCc3ccccc3)c(Cl)nc12 | / | 9 | i | 0.89 | 104 | / | /
O=C(COc1ccc2ccccc2c1Br)N1CCOCC1 | -5.5 | -5 | i | 0.92 | 118 | -10 | 90
O=C(O)CSc1c(O)c2ccccc2[nH]c1=O | / | 6 | i | 0.95 | 101 | / | /
O=C(c1cccc(Cl)c1)N1CCC(c2nc3ccccc3[nH]2)CC1 | / | -6 | i | 0.9 | 104 | / | /
O=C(Nc1ccc(OC(F)(F)F)cc1)c1ccc(S(=O)(=O)N2CCOCC2)o1 | / | / | i | 0.95 | 99 | / | /
CC1(c2nnc(-c3ccc(Cl)cc3)o2)CC(c2c(Cl)cccc2Cl)=NO1 (stereo unspecified) | / | / | i | 0.71 | 100 | / | /
Fc1ccccc1-n1c(-c2ccc3ccccc3n2)n[nH]c1=S | / | 1 | i | 1.1 | 92 | / | /
CCOC(=O)c1nn(-c2ccc(F)cc2)c(-c2ccccc2)c1C(=O)c1ccccc1 | 0.7 | -15 | i | 0.91 | 102 | -2 | 104
O=C(Nc1nc(-c2cc3ccccc3oc2=O)cs1)c1ccco1 | -1.2 | 0 | i | 0.89 | 104 | / | /
Cc1ccc(NC(=S)N(Cc2cccc(Br)c2)CC2CCC(C(=O)O)CC2)cc1Cl (stereo unspecified) | / | -4 | i | 1.1 | 105 | / | /
CCOc1cc(C(=O)NCC(=O)N/N=C/c2sccc2C)cc(OCC)c1OCC | / | -2 | i | 0.9 | 105 | / | /
C=CCSc1nnc2c(n1)OC(c1cccnc1)Nc1ccccc1-2 (stereo unspecified) | -0.4 | -6 | i | 1 | 100 | / | /
COc1cc(/C=N/N=C(/N)c2nonc2N)cc(Br)c1OCc1ccccc1C | -1.6 | -1 | i | 0.79 | 102 | 6 | 161
CC(NC(=O)C(C)(C)C)c1nc2ccccc2n1C (stereo unspecified) | -0.7 | -6 | i | 0.97 | 84 | / | /
CN1CCN(CCCNC(=O)CCCOc2cc(=O)n(C)c3ccccc23)CC1 | -0.6 | -2 | i | 0.8 | 108 | 10 | 118
COc1ccc2c(c1)c(C(=O)N/N=C/c1ccc(Cl)cc1)c(C)n2C | / | / | i | 0.86 | 101 | / | /
O=C1CCCN1CCCNc1ncnc2sccc12 | / | 2 | i | 0.87 | 100 | / | /
CC1CCCC(C)N1C(=O)CSc1nnnn1Cc1ccccc1 (stereo unspecified) | 0.2 | -13 | i | 0.99 | 96 | / | /
CN(C)S(=O)(=O)Nc1ccc(C(=O)O)cc1 | 0.0 | -5 | i | 0.85 | 113 | -36 | 143

Overlap with the part before: 3 compounds, then new ones.
SMILES | GALR2 agonist | PKD1 kinase inh | HSV replic up | HSV replic up primary fold | RGS16-Gao | INS promoter inh | INS promoter inh cell count
O=C1CCCN1CCCNc1ncnc2sccc12 | / | 2 | i | 0.87 | 100 | / | /
CC1CCCC(C)N1C(=O)CSc1nnnn1Cc1ccccc1 (stereo unspecified) | 0.2 | -13 | i | 0.99 | 96 | / | /
CN(C)S(=O)(=O)Nc1ccc(C(=O)O)cc1 | 0.0 | -5 | i | 0.85 | 113 | -36 | 143
Cc1ccccc1NS(=O)(=O)c1ccc(OCC(=O)N2CCCC2)cc1 | -2.5 | -4 | i | 1.1 | 100 | -431 | 46
Cc1onc(-c2ccccc2)c1C(=O)Nc1ccc(N2CCOCC2)cc1 | -4.3 | -6 | i | 0.94 | 103 | 16 | 102
Cc1[nH]nc2cn[nH]c12 | 0.3 | 0 | i | 0.9 | 102 | -8 | 100
CCc1nc(N2CCCC2)c(C#N)c2c1CCCC2 | -2.8 | -4 | i | 0.9 | 99 | 14 | 96
CC(C)c1ccc(-n2c(-c3ccccc3)c[n+]3c2CCc2ccccc2-3)cc1 | / | -4 | i | 0.67 | 119 | -75 | 29
Nc1cccc(C(=O)OCC(=O)Nc2cccc3c2C(=O)c2ccccc2C3=O)c1 | 2.0 | -11 | i | 0.98 | 96 | -46 | 135
CN(Cc1c(O)ccc2c1oc(=O)c1ccccc12)C1CCCCC1 | -0.8 | -1 | i | 1 | 98 | / | /
O=[N+]([O-])c1ccc2nc(-c3ccccn3)[nH]c2c1 | / | / | i | 0.66 | 92 | / | /
COc1ccccc1Nc1nnc(SCC(=O)Nc2nc(-c3ccc(F)cc3)cs2)s1 | / | -5 | i | 0.84 | 99 | / | /
COc1cccc(C(=O)Nc2cccc(OCC(=O)c3ccccc3)c2)c1 | / | 2 | i | 0.92 | 99 | / | /
CCCCOCCCn1cnc2c([nH]c3cc(OC)ccc32)c1=O | 0.9 | 6 | i | 0.9 | 179 | -25 | 81
CCCCCCCN1N=C(C)C(C(=O)c2ccccc2)C1=O (stereo unspecified) | -1.3 | -4 | / | / | 101 | -17 | 104
O=C(NCCCn1ccnc1)c1ccc(Br)c(S(=O)(=O)N2CCOCC2)c1 | -1.0 | -7 | i | 0.9 | 95 | -44 | 101
C/C(=C\C(=S)Nc1ccccc1)Nc1ccccc1 | -1.8 | -11 | ? | / | 97 | / | /
O=C(C/C=N/OCc1c(Cl)cccc1Cl)c1ccc(Cl)cc1 | -3.1 | 2 | i | 0.72 | 75 | -18 | 134
CC(=O)N1CCc2c(sc(NC(=O)C3CC3)c2-c2nc3ccccc3s2)C1 | 0.1 | -11 | i | 0.8 | 100 | / | /
c1ccc2c(c1)Nc1ccncc1S2 | / | / | i | 1.1 | 100 | / | /
Cc1nc(SC2CCOC2=O)c2c(C)c(C)sc2n1 (stereo unspecified) | -4.3 | 6 | i | 1 | 105 | -41 | 76
Cc1ccc(N2CCN(/N=C/c3ccccc3[N+](=O)[O-])CC2)cc1 | / | 1 | i | 0.95 | 99 | / | /
COc1ccc(C(=O)Nc2ccc(C)cn2)c(OC)c1 | -0.8 | -15 | i | 0.81 | 96 | 29 | 70
CCc1ccc(C(C)NC(=O)/C=C/c2ccc(Br)cc2)cc1 (stereo unspecified) | -0.6 | 9 | i | 0.76 | 103 | 37 | 85
c1ccc2c(c1)CCN2CCN1CCc2ccccc21 | -0.9 | -10 | i | 0.97 | 97 | 0 | 124
O=C(O)c1cccc2c(-c3ccccc3)c(-c3ccccc3)[nH]c12 | / | / | i | 0.9 | 105 | / | /
CC(=O)NCc1ccc(S(=O)(=O)NC(C(=O)O)C(C)C)cc1 (stereo unspecified) | / | -2 | i | 0.97 | 99 | -59 | 76
CN(C)/C=C(\C#N)S(=O)(=O)C(C)(C)C | / | 7 | i | 0.93 | 113 | 27 | 168
O=C(Nc1cccc(Cl)c1)C1CCCN(S(=O)(=O)c2ccc(F)cc2)C1 (stereo unspecified) | -0.9 | -5 | i | 0.81 | 152 | -360 | 120
CC(Nc1n[nH]c(=O)[nH]c1=O)C(=O)N/N=C/c1cccs1 (stereo unspecified) | / | -5 | i | 1 | 98 | / | /
Cc1c(NC(=O)CCC2CCCCC2)c(=O)n(-c2ccccc2)n1C | 1.2 | -1 | i | 0.83 | 93 | / | /
